PABP FP inh: PABP-poly(A) binding inhibition; P11940; PABP-poly(A) RNA binding, fluorescence polarization; inhibition, % at 35 µM; 290,000 tested, 1% active; AID 2014;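 active = 50% or more with normal probe brightness, or confirmed in later tests; inconclusive = above 50% with abnormal brightness, or retests that disagree; inactive = below 50% or failed in later tests; about a fifth of its hits are not listed in these tables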;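 also: calls also rest on retests at 20 µM and on dose response follow-up; controls were probe without protein and protein plus probe with vehicle; some compounds called inactive have numbers as strong as hits; many hits fall short of the cut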
Target sequence (P11940 whole entry, looked up): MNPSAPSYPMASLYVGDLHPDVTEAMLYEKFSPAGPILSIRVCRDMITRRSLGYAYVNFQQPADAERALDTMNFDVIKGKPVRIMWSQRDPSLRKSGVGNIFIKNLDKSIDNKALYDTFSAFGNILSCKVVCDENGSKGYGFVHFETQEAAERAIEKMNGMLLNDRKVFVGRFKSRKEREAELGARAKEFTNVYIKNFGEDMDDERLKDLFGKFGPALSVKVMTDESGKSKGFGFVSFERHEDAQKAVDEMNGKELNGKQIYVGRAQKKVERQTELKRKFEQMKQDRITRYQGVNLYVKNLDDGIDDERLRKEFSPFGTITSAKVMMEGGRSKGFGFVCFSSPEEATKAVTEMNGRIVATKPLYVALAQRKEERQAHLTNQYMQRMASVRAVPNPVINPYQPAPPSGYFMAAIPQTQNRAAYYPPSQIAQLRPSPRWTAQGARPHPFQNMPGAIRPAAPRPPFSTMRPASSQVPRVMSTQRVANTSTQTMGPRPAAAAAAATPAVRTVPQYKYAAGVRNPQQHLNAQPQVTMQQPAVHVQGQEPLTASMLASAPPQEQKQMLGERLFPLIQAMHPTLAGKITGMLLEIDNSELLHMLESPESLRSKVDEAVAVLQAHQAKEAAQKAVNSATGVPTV
MT1-MMP act inh: inhibitors of human MT1-MMP activation; GFP/RFP ratio change, % at 20 µM; HT1080 RFP-PRO-GFP cells, GFP/RFP ratio fluorescence, overnight; percent of plate control window, DMSO zero; 360,000 tested, 0.061% active; P50281;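 active = GFP/RFP ratio change of at least 30% with cell ATP level not reduced by more than half and red fluorescence within 50% of control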; also: strong numbers were not always called active
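Assay system: RFP-PRO-GFP reporter HT1080 cells; read-out basis: GFP/RFP fluorescence ratio; benchmarks: DMSO wells and RFP-L50D-GFP cells; doses: 20 µM single dose, 1% DMSO; schedule: overnight cell settling, then overnight compound exposure, 37 °C, 5% CO2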
HIV Env fusion: inhibitors of HIV Env-mediated cell fusion; HeLa-JRFL Env/CEM21 cell fusion, luciferase; inhibition, % at 12.3 µM; 360,000 tested, 1.1% active;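 active = mean replicate inhibition score of at least 50 and every replicate individually at or above 50; inconclusive = only one of the two criteria met; inactive = mean below 50 and not all replicates reaching 50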;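 also: 0% = plate neutral controls and 100% = maraviroc near 300 nM; one replicate is shown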
UUG fidelity: alters start codon recognition fidelity in yeast. AID 602363. 350,000 tested, 0.13% active. S. cerevisiae UUG-firefly luciferase reporter, luminescence/redox ratio. activity score, % at 18.7 µM;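 active = replicate mean at a twofold rise or more, about +100% in these data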;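 also: firefly luciferase made from a UUG start codon reports start codon fidelity; reporter light over untreated wells divided by growth signal over untreated wells; some hits fall short of that in this replicate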
Rce1 inh: yeast Ras-converting enzyme inhibition; Q03530; yeast membranes, quenched prenylated peptide cleavage fluorescence; calls only; 290,000 tested, 0.27% active; AID 2563;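 active = fall in fluorescence gain of 50% or more versus controls, with final raw signal at or below 3038400; inconclusive = same 50% fall but final raw signal above 3038400; inactive = fall in fluorescence gain under 50%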;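 also: plate controls were neutral control wells for no effect and wells lacking membranes for full effect; tested at 10 µM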
Target sequence (Q03530 whole entry, looked up): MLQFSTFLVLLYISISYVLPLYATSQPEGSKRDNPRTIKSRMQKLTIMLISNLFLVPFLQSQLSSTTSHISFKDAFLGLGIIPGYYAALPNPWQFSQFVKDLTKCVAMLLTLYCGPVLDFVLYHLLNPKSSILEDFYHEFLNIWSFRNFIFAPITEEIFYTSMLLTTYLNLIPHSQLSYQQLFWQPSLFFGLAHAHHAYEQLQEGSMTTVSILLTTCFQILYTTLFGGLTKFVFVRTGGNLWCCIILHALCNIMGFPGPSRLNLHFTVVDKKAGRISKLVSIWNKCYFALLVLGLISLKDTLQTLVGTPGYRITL
eIF4H FP inh: inhibitors of RNA binding by human eIF4H | Q15056 | eIF4H fluorescence polarization binding assay | inhibition, % at 35 µM | 290,000 tested, 0.94% active | AID 2012;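 active = 50% or more with normal probe brightness, or confirmed in later tests; inconclusive = above 50% with abnormal brightness, or retests that disagree; inactive = below 50% or failed in later tests; about a fifth of its hits are not listed in these tables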;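 also: calls also rest on retests at 20 µM and on dose response follow-up; 0% = protein and probe with vehicle and 100% = probe without protein; strong numbers were not always called active; many hits fall short of the cut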
CSC inhib: cancer stem cell inhibition; cancer stem cell-like cells viability, luminescence; 300,000 tested, 1.1% active; inhibition, % at 7.5 µM;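 active = mean at 75% or more and at least half the replicates too; inconclusive = mean and replicates disagree; tested in HMLE shEcad cells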;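 also: 0% = median of negative and 100% = median of positive control wells; the first replicate is given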
MT1-MMP act inh RFP: recorded beside MT1-MMP act inh, whose call it bears; RFP signal change, %; measured here: RFP expression control read;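 0 = vehicle wells; hits needed this value within 50% of zero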
Starred values were filed as active, the others as inactive; i = inactive; ? = inconclusive; / = not tested or not shown; + = active, no number. This is a subset. The share of hits here may be higher or lower than overall.

SMILES | PABP FP inh | MT1-MMP act inh | MT1-MMP act inh RFP | HIV Env fusion | UUG fidelity | Rce1 inh | eIF4H FP inh | CSC inhib
CCN(CC)S(=O)(=O)c1ccc(N2CCCC2)c(NC(=O)Cc2c(F)cccc2Cl)c1 | 6 | -3 | -5 | 57* | -1 | i | 21 | 33
Cc1nc2oc3c(NCc4ccccn4)ncnc3c2c2c1COC(C)(C)C2 | 6 | 4 | -2 | -35 | -14 | i | 1 | -5
N#CC1CC(c2ccccc2)Nc2cc(Cl)ccc2N1 (stereo not given) | 1 | 10 | -13 | -142 | -17 | i | 10 | 19
O=C(/C=C/c1ccc(N2CCCCC2)c([N+](=O)[O-])c1)c1ccc(S(=O)(=O)N2CCCC2)cc1 | -7 | -5 | -16 | -7 | / | i | 4 | 29
COCC(C)n1c(SCc2nc(N)nc(Nc3ccccc3C)n2)nc2ccccc2c1=O (stereo not given) | -9 | -5 | -1 | -48 | -8 | i | 0 | -7
CCOC(=O)N1CCN(C(=O)CN(C)S(=O)(=O)c2ccc(OC)c(OC)c2)CC1 | -10 | 2 | 3 | / | -13 | i | -19 | 2
Nc1ccc(C(=O)Nc2ccc3nc(-c4ccncc4)[nH]c3c2)cc1 | 2 | 7 | 3 | -23 | / | i | 8 | -10
Cc1cc(F)ccc1S(=O)(=O)Nc1ccccc1C(=O)Nc1ccccc1-c1nc2ccccc2[nH]1 | 6 | -19 | -34 | / | -16 | i | -14 | 79*
CCOc1ccc2[nH]c(=O)c(CN(CCN3CCOCC3)Cc3nnnn3C(C)(C)CC)cc2c1 | 9 | -6 | -4 | 8 | -3 | + | 7 | 4
COc1cccc(/C(C)=N/N=C(\C)c2cccc(OC)c2)c1 | 9 | 2 | -6 | -67 | -13 | i | -3 | -17
Cc1cccc(OCC(=O)NNC(=O)Nc2cccc(Cl)c2)c1C | 7 | / | / | / | -9 | i | -8 | -12
Cc1oc2cc3oc(=O)c(CCC(=O)NCCCn4ccnc4)c(C)c3cc2c1C | -5 | 8 | 0 | / | -12 | i | -16 | 12
CC(=O)c1cccc(N(C(=O)c2ccco2)C(C(=O)NC2CCCC2)c2ccccc2F)c1 (stereo not given) | 8 | 1 | 2 | -4 | 0 | i | -6 | /
O=C(NC1CCCc2ccccc21)C1CCN(S(=O)(=O)c2cccc3nonc23)CC1 (stereo not given) | -4 | -5 | 0 | / | -4 | i | 11 | -6
CCOC(=O)CN1C(=O)N[C@@H](c2cccc(C(F)(F)F)c2)[C@H](C(C)=O)[C@H]1C | / | 1 | -3 | / | -9 | i | / | /
CC(C)(C)c1cc(C(=O)NCCCn2ccnc2)cc(C(C)(C)C)c1 | -5 | 1 | 1 | 28 | -7 | i | 4 | -10
O=C(OCC#CCSc1nnc(-c2cccc3ccccc23)o1)c1cc2ccccc2o1 | / | 9 | 2 | -12 | -23 | / | / | /
CCOc1ccc(N(CC)S(=O)(=O)c2ccc3c(c2)oc(=O)n3C)cc1 | 4 | 5 | -1 | 1 | -7 | i | -2 | 7
CCN(CC)C(=O)CSc1nc2c(c(-c3cccnc3)c1C#N)CCCC2 | 13 | -3 | -9 | 11 | / | / | 8 | -16
Cc1cc(C)cc(N2C(=O)C3NN=C(C(=O)OCc4ccccc4)C3C2=O)c1 (stereo not given) | 4 | 1 | 2 | 3 | -9 | i | -6 | -8
CNC1(c2nnnn2-c2c(C)cccc2C)CCOC(C)(C)C1 (stereo not given) | -8 | 2 | 3 | -2 | -7 | i | -1 | -12
COc1cccc(-c2ccc3ncnc(NCc4cc(C)cs4)c3c2)c1 | / | -3 | -19 | 45 | -12 | / | / | 49
CCC(NC(=O)c1cccc(Cn2nc(C)c([N+](=O)[O-])c2C)c1)c1ccc(C(C)C)cc1 (stereo not given) | 1 | -15 | -12 | -2 | -11 | i | 48 | 0
COc1ccc(OCC(O)CN(CC(O)COc2ccc(OC)cc2)c2cccc(O)c2)cc1 (stereo not given) | 1 | 3 | -2 | 2 | 13 | i | -3 | 12
Cc1ccccc1CN(c1ccc(C(=O)NCc2cccnc2)cc1)S(C)(=O)=O | -2 | 3 | 5 | 1 | -14 | i | -9 | -18

Next section.
SMILES | PABP FP inh | MT1-MMP act inh | MT1-MMP act inh RFP | HIV Env fusion | UUG fidelity | Rce1 inh | eIF4H FP inh | CSC inhib
CCOC(=O)c1ccccc1NC(=O)CSc1nnc(Cc2cccn2C)n1-c1ccc(C)cc1 | 1 | -5 | -2 | 10 | -10 | i | 11 | -3
Cc1ccc(NC(=O)C2CC2c2ccccc2)c([N+](=O)[O-])c1 (stereo not given) | 5 | -1 | 1 | -26 | -2 | i | -12 | -3
CCNC(=O)C1(C)CCCN(C(=O)c2nc3ccccc3s2)C1 (stereo not given) | / | 2 | 3 | 2 | -2 | / | / | /
O=C(NC(c1ccccc1)c1ccccc1)c1ccc(=O)[nH]n1 | -7 | 4 | 6 | -16 | / | i | -9 | -8
CC(C)(C)n1nc2c(c1NC(=O)COc1ccc(F)cc1)CS(=O)(=O)C2 | -8 | 3 | 5 | 3 | -17 | i | -18 | -6
COc1ccc(CNCC(O)COc2ccc(C(C)(C)c3ccccc3)cc2)cc1 (stereo not given) | -21 | 8 | 2 | 5 | / | i | -9 | 109*
O=c1c2ccccc2nc2n1CCCCC2 | -11 | 2 | -1 | / | 4 | i | 6 | 11
CCOc1ccc(S(=O)(=O)N2CCN(C(=O)c3ccccc3Cc3ccccc3)CC2)cc1 | / | -3 | -2 | -76 | -17 | i | / | -1
CC(=O)C1=C(C)N(CC2CC2)C(=O)N[C@H]1c1ccccc1 | 5 | 0 | 0 | -5 | -19 | i | -1 | -15
Nc1c(C2CCCCC2)c(=O)on1C(=O)c1ccccc1 | / | 0 | 3 | -14 | -14 | / | / | /
O=C(NCCNC(=O)c1cnccn1)c1ccc(Cl)cc1 | -2 | -1 | 2 | 4 | -17 | i | 1 | /
O=C(OCCN=C1NS(=O)(=O)c2ccccc21)c1ccco1 | -13 | -1 | 1 | 10 | / | i | 1 | 6
COc1ccc(CCNc2nc(N3CCOCC3)nc(N3CCOCC3)n2)cc1OC | 13 | -2 | 1 | -13 | -3 | i | -2 | 12
Cc1ccc(N2CC(C(=O)NCCS(=O)(=O)N3CCN(c4ccccc4)CC3)CC2=O)cc1C (stereo not given) | 4 | 6 | 1 | -4 | -1 | i | 7 | -6
CCS(=O)(=O)N1CCC(C(=O)NCCCOC)CC1 | 4 | 6 | 5 | / | -4 | i | 1 | -12
CCCCOc1ccc(CSc2ncn[nH]2)cc1 | -6 | -1 | -4 | -151 | -25 | i | -4 | 22
CCCCN(CCCC)CC(O)CN(c1cc([N+](=O)[O-])ccc1OC)S(=O)(=O)c1ccccc1 (stereo not given) | 11 | -5 | -2 | / | / | i | -3 | -5
COc1cc(NS(=O)(=O)c2ccc(NC(=O)c3ccc(S(=O)(=O)N4CCCC4)cc3)cc2)ncn1 | -6 | / | / | -1 | / | i | 6 | -5
O=C(NC1CCCCC1)N(Cc1cc2cc3c(cc2[nH]c1=O)OCCO3)C1CCCCC1 | -3 | -52 | -34 | 46 | -12 | / | -9 | /
Cc1ccc2ccc[n+](Cc3ccccc3)c2c1 | / | -9 | -12 | -10 | 4 | i | / | -11
COc1ccc(N2C(=O)CC(SCc3ccc(Cl)cc3)C2=O)cc1 (stereo not given) | 0 | 5 | -1 | 16 | / | i | -12 | 5
COc1ccc(C(=O)COC(=O)CNC(=O)c2cc(OC)cc(OC)c2)cc1 | 1 | 2 | -3 | -4 | 1 | i | -1 | -15
CN(C)S(=O)(=O)c1ccc(NC(=O)CCNC(=O)c2ccc([N+](=O)[O-])cc2)cc1 | -1 | 2 | 3 | -2 | / | i | 2 | 2
COc1cc(CN2C[C@@H](CO)O[C@@H](n3cnc4c(NCC(C)C)ncnc43)C2)cc(OC)c1OC | / | 2 | 0 | 24 | 1 | / | / | /
NC(=O)Nc1ccc(C(=O)OCC(=O)c2c[nH]c3ccccc23)cc1 | / | -3 | -1 | -2 | -5 | / | / | 5

New compounds follow
SMILES | PABP FP inh | MT1-MMP act inh | MT1-MMP act inh RFP | HIV Env fusion | UUG fidelity | Rce1 inh | eIF4H FP inh | CSC inhib
O=c1ccc2cc3c4c(c2o1)CCCN4CCC3 | ? | -49 | 3 | -3 | -3 | i | ? | 2
Cn1nc(C(F)(F)F)c(/C=N/OCc2c(Cl)cccc2Cl)c1Cl | 12 | 1 | 2 | 2 | -12 | i | 6 | 24
NC(=O)c1cc2nc(-c3ccco3)cc(C(F)(F)F)n2n1 | 1 | 1 | 6 | / | / | / | 19 | -8
COc1ccc(NC(=S)NC(=O)CC(C)C)c(OC)c1 | 16 | -7 | -2 | -26 | / | i | -9 | -7
Cc1cc(SCC(=O)N(C)C2CCCCC2)nc2ccccc12 | / | -2 | 3 | / | -13 | / | / | -5
CC(OC(=O)c1ccc2c(c1)S(=O)(=O)c1ccccc1C2=O)C(N)=O (stereo not given) | 14 | -2 | -2 | -10 | / | i | -6 | -17
CCCc1[nH]n(-c2nc3ccccc3s2)c(=O)c1C=NCC(C)C | 5 | 2 | -1 | / | / | i | -11 | -7
CC(C)(C)c1ccc(CC(=O)N2CCC2(C)C(=O)O)cc1 (stereo not given) | / | -6 | 2 | 1 | -11 | / | / | /
COc1ccc(N2CCN(CCCn3c(=S)[nH]c4ccccc4c3=O)CC2)cc1 | -9 | -1 | -1 | 0 | / | i | 3 | 33
CC(C)NC(=O)c1ccccc1S(=O)c1ccccc1C#N (stereo not given) | 3 | -1 | 0 | / | -7 | i | -4 | -2
O=C(Cc1cccs1)N/N=C/c1ccccc1 | -4 | 1 | -1 | -8 | -10 | i | 6 | -2
CC1CCCC/C1=N/Nc1ccc([N+](=O)[O-])cc1[N+](=O)[O-] (stereo not given) | 8 | 4 | 0 | / | -12 | i | 4 | /
CCOc1ccc(C(=O)NCC(c2ccco2)N2CCOCC2)cc1 (stereo not given) | / | 4 | 1 | -8 | -7 | i | / | 0
